# T cruzi repl = T. cruzi replication inhibition. actives 1.4% (n = 300,000). inhibition, % (concentration not given with the values). T. cruzi beta-gal in NIH3T3, luminescence, 90 h. AID 1885;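 active = mean inhibition across valid replicates above about 55%, limit read from the data; inconclusive = mean below that limit but half or more replicates reach it; inactive = mean below it, under half of replicates reach it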;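 also: signal also drops with host cell toxicity which is not excluded here; 0% = plate median of DMSO wells and 100% = zero luminescence signal; higher percent means less beta-gal luminescence so fewer parasites; stock transfer was 50 nL into about 50 µL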
# Calb FLC = C. albicans growth modulation with fluconazole | C. albicans CaCi-2 (fluconazole-resistant clinical isolate) + fluconazole, Alamar Blue growth, 48 h | growth inhibition, % (test concentration not listed) | actives 0.57% (n = 300,000);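 active = most replicates above 75%; inconclusive = exactly half above 75%; inactive = most below 75%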;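 also: all wells also contain fluconazole at 8 µg/ml as a sub-toxic cotreatment; 0% = median of DMSO wells and 100% = median of geldanamycin control wells; wells of about 8 µL received 7.5 nL stock; the first replicate is given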
# Beta apoptosis = blocks beta cell apoptosis; INS-1E cytokine-induced death, ATP luminescence, 48 h; percent of positive-control rescue, neutral wells zero; protection from apoptosis, % (concentration not given with the values); actives 0.8% (n = 300,000); AID 435005;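 active = all replicates at 75% or more, or half of them and the mean; inconclusive = half reach 75% but not the mean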;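 also: 0% = cytokine-treated negative control wells and 100% = positive control rescue; higher means more ATP so stronger rescue from cytokine killing; wells of about 40 µL received 100 nL stock; the first replicate is given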
# Bfl-1 A1 inh = inhibitors of the anti-apoptotic protein A1, read as caspase activation. actives 0.066% (n = 330,000). AID 2462. MEF A1-2A-BIM cells, Caspase-Glo 3/7 luminescence, 3 h; percent of clofoctol response, vehicle zero. caspase activation, % (no concentration beside the values);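 active = over half of replicate activation scores above 10%, or exactly half above 10 with the replicate mean above 10; inconclusive = replicate mean below 10 yet half the replicates above 10; inactive = over half of replicates below 10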;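 also: wells of about 30 µL received 50 nL stock; many hits fall short of the cut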
# RanGTP-Imp inh = disruptors of Ran-importin-beta complex formation – biochemical, FRET, CFP-Ran, YFP-importin-beta, homogeneous, primary screen | inhibition, % (test concentration not listed) | cell-free CFP-Ran/YFP-importin-beta FRET ratio | actives 1.1% (n = 300,000);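 active = most replicates above 15%; inconclusive = exactly half above 15%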;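 also: 0% = DMSO wells and 100% = Ran loaded with GDP instead of GTP; wells of about 40 µL received 100 nL stock; the first replicate is given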
# Vif TR-FRET = HIV-1 Vif–A3G interaction blockers – biochemical, TR-FRET, GST-Vif 1-94, biotin-A3G peptide, dose response retest, primary screen (AID 1117319) | TR-FRET GST-Vif / biotin-A3G peptide binding; higher % means a stronger effect; test concentration not given here; strong numbers were not always called active | inhibition, %, or IC50 in µM where a hit was titrated | actives 0.57% (n = 260,000);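 active = above the screen mean plus three standard deviations and confirmed in dose response; inconclusive = results disagree or hit not tested in dose response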;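 also: Vif residues 1-94 fused to GST binding biotinylated APOBEC3G peptide 110-148; 0% = full assay without inhibitor and 100% = GST in place of GST-Vif; retest series ran down from 100 µM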
# AF4-AF9 inh = blocks AF4 peptide binding to human AF9. actives 0.47% (n = 350,000). inhibition, % at 10 µM. P42568. AlphaScreen, biotin-AF4 peptide binding to FLAG-AF9. AID 651704;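 active = every replicate reaching a set inhibition limit, whatever the replicate mean, cut at about 25% in these data; inconclusive = mean inhibition reaches that limit but some replicates miss it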;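 also: 0% = plate neutral control median and 100% = total signal loss; the record names both 10 and 1 µM as test concentration; the first replicate is given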
# LANA-H2A inh = blocks KSHV LANA binding to histone H2A/H2B; Q9QR71; cell-free LANA-H2A/H2B peptide, fluorescence polarization; inhibition, % (test concentration not listed); actives 0.6% (n = 320,000); in the data active = inhibition mostly above about 10%, no sharp cut-off; inactive = mostly below about 6.7%;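 also: stock transfer was 7.5 nL into about 10 µL; 0% = median of vehicle wells and 100% = median of positive control wells; one replicate is shown; the record names a cut of 25% in any replicate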
# Target sequence (Q9QR71 whole entry, looked up): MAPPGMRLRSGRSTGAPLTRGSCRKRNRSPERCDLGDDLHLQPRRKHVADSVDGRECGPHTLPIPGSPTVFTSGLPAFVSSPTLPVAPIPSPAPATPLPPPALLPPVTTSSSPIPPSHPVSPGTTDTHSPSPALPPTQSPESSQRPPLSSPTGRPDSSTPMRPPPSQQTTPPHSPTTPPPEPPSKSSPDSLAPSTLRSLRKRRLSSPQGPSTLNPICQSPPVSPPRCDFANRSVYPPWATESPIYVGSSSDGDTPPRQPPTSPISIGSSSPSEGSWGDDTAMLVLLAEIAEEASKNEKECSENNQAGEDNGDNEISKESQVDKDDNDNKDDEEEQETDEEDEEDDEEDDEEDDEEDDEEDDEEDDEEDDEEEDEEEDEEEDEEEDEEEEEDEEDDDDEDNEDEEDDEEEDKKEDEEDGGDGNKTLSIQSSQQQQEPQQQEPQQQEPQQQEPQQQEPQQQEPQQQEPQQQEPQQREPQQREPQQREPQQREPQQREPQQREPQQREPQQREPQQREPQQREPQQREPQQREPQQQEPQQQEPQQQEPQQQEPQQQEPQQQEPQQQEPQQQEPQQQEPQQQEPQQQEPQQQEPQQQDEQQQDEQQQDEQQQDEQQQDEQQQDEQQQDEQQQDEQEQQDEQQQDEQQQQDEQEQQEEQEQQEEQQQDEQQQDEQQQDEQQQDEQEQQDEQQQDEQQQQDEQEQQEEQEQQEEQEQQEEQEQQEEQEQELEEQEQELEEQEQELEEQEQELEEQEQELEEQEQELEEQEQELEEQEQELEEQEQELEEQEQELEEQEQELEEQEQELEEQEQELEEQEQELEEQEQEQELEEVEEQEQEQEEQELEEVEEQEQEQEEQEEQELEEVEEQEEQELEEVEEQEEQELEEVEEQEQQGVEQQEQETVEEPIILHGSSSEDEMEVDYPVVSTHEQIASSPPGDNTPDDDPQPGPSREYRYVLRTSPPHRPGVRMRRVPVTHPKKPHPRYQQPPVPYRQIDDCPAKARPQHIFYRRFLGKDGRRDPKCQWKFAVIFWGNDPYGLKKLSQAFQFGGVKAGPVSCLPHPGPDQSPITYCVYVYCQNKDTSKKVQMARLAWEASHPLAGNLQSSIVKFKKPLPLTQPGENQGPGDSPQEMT
# Starred values were filed as active, the others as inactive; ? = inconclusive; / = no result given.
SMILES,T cruzi repl,Calb FLC,Beta apoptosis,Bfl-1 A1 inh,RanGTP-Imp inh,Vif TR-FRET,AF4-AF9 inh,LANA-H2A inh
O=C1CCC([N+](=O)[O-])C(c2ccc(Cl)cc2)N1 (stereo not given),-15,-5,-4,-0.6,?,-2%,/,-3.9
Cc1ccccc1OCC(=O)N(CC(C)C)c1c(N)n(CC(C)C)c(=O)[nH]c1=O,-11,14,-2,1.0,-3.4,/,-0.5,-3.5
Cc1cccc(N=C2NN=C(c3ccccc3F)CS2)c1C,0,12,-5,1.1,3.8,20%,6.3,3.6
COc1cc([N+](=O)[O-])ccc1NC(=O)NNC(=O)c1sccc1C,-3,16,7,-0.8,-0.2,/,0.7,-0.9
CCOc1ccccc1CNC(=O)c1cc2oc3ccccc3c2n1CC,26,-7,6,-0.9,-1.3,6%,/,2.7
Cc1c(Nc2cc(N3CCOCC3)c3nonc3c2[N+](=O)[O-])c(=O)n(-c2ccccc2)n1C,-3,-14,/,-0.4,-0.2,/,/,-4.0
COc1ccc2c(c1OC)C(=O)N(c1ccc3c(c1)CCC3)C2=O,-13,0,0,-0.2,-2.4,-3%,/,7.0
COc1ccc(S(=O)(=O)N(CC(=O)NCc2ccncc2)c2ccc(C)cc2)cc1OC,-6,17,1,0.8,-4.3,0%,3.2,0.0
CCc1ccc(OCC(=O)NNC(=S)NC(=O)C2CCCCC2)c(Br)c1,-17,84*,1,0.8,0.2,0%,-3.1,1.6
CCOC(=O)C(NC(=O)Cc1ccccc1)(Nc1cc(C)on1)C(F)(F)F (stereo not given),-1,-10,-5,0.2,3.0,-12%,/,-15
CCOC(=O)CSc1nc(C(C)(C)C)nc2ccccc12,-1,-1,3,0.1,1.8,-4%,-2.5,-4.4
CCOC(=O)c1c(C)oc2ccc(OC(=O)N3CCOCC3)cc12,18,-11,/,-0.6,4.9,1%,3.0,-0.1
COc1ccc(N2C(=S)N(C(=O)c3ccccc3)C(=Nc3ccccc3)C2=Nc2ccccc2)cc1,16,5,9,-8.0,0.7,-3%,/,-6.2
Cc1cc(C)c(NC(=O)c2ccc3c(c2)C(=O)N(Cc2cccnc2)C3=O)c(C)c1,-10,-14,0,0.1,3.7,-2%,1.0,-2.8
CCCCNC(=S)NC(=O)c1ccc(Cl)cc1Cl,-33,16,/,-0.6,1.1,4%,/,-4.4
O=C(Cn1cnc2c(cnn2-c2ccc(Cl)cc2)c1=O)NC1CCCCC1,/,/,2,0.6,/,11%,-2.6,-7.1
O=c1[nH]c(C2CC2)nc2sc3c(c12)CCCC3,7,-1,1,-0.3,?,/,0.2,2.3
COc1cccc(N/C(=N/C(=S)Nc2ccc(C)cc2C)Nc2nc(C)cc(C)n2)c1,22,-7,-12,-0.9,-2.9,13%,-4.5,5.2
CCN(CC)c1ccc(/C=N/NC(=O)C(O)c2ccccc2)cc1 (stereo not given),-11,-3,6,-0.4,0.6,/,4.2,-2.3
CN(C)Cc1ccc(F)cc1Sc1cc(Cl)ccc1Cl,-16,2,3,-0.2,-2.4,0%,/,-0.4
CCOC(=O)c1c(NC(=O)c2c(-c3ccccc3)noc2C)sc(C)c1-c1ccccc1,63*,8,6,-0.5,1.0,-1%,/,8.6
CCCCC(=O)Nc1nnnn1CCC,-5,-5,-1,0.2,-2.2,-2%,14,1.6
CC(=O)N1N=C(c2ccco2)CC1c1cccs1 (stereo not given),-20,-9,-6,-0.1,1.4,6%,/,-0.1
C=CCN1C(=O)/C(=C/C=C2/N(CC)c3ccc(S(=O)(=O)N(C)C)cc3N2CC)SC1=S,25,-21,20,-0.6,-24,-19%,-3.8,-23
CCOC(=O)C1CCCN(C(=O)Cn2c(=O)c3cccn3c3cccnc32)C1 (stereo not given),3,-7,-3,1.0,1.7,/,-34,4.0
CCOc1ccc(-n2c(SCC(=O)Nc3ccc4c(c3)OCO4)nc3ccccc3c2=O)cc1,20,0,2,0.3,-0.8,-7%,/,1.7
COc1ccc(Cc2n[nH]c(=S)n2Cc2ccccc2)cc1Cl,-3,-5,-2,0.3,-0.4,-4%,-3.9,-1.1
Cc1cccc(-c2nc(C#N)c(N3CCC(C)CC3)o2)c1,-9,8,-3,-0.8,?,0%,23,2.4
CN(c1cccc(NC(=O)CN(c2ccc(Cl)c(Cl)c2)S(=O)(=O)c2ccccc2)c1)S(C)(=O)=O,26,9,-1,1.2,9.4,29%,/,-4.1
OC(COC1CCCCC1)CN1CCN(c2ccccc2)CC1 (stereo not given),16,-47,1,-0.5,/,8%,/,3.6
COC(=O)C[C@H]1c2cc(F)ccc2S(=O)(=O)N1Cc1ccccc1,-9,0,3,0.6,1.7,/,3.7,1.0
COc1ccc(NC(=O)CSc2nc(O)c(Cc3ccccc3)c(=O)[nH]2)cc1,-10,-5,-1,-1.1,5.0,0%,/,-1.3
CCOc1ccccc1NC(=O)C1CCCCN1S(=O)(=O)c1ccc(F)cc1 (stereo not given),8,0,3,0.8,-4.8,6%,1.3,4.9
Cc1ccc(CNC(=O)CSCc2ccc(F)cc2)cc1,4,-30,0,-1.2,2.9,-12%,-1.5,1.7
Cc1ccc(OCC(=O)NCCN2CCOCC2)cc1C,-5,-4,-5,0.1,3.8,7%,/,5.5
CCC(=O)NC(=S)Nc1cccc(-c2nc3ncccc3o2)c1,8,-8,/,0.2,?,/,/,2.0
COc1ccc(NC(=O)N2CCCC(c3nc(-c4ccc(C(C)C)cc4)no3)C2)cc1 (stereo not given),10,5,16,-1.3,-0.6,3%,/,2.7
Cc1ccc(S(=O)(=O)N2CCN(C(=O)CN3CCCSc4ccccc43)CC2)cc1,/,/,5,-0.5,/,/,-6.5,0.3
COc1ccc(-c2cc3ccccc3n2CC(O)CN2CCCCC2)cc1 (stereo not given),-7,-5,-1,-0.5,1.5,0%,4.2,0.7
O=C(NN=Cc1ccc(O)cc1O)c1ccccc1NS(=O)(=O)c1cccs1,/,/,2,-0.6,/,/,17,-5.8
Cc1ccc(OCCn2cnc3ccccc3c2=O)c([N+](=O)[O-])c1,-1,0,4,-1.8,-2.5,-8%,1.4,-4.0
O=C(NC(=S)N1CCc2ccccc21)c1ccccc1Br,-18,-13,0,-1.0,-0.1,/,/,3.4
COc1ccc(C)cc1Nc1ccc(C(=O)O)cc1[N+](=O)[O-],-2,33,-2,0.0,3.0,32%,-0.2,5.1
O=C(NCc1ccccc1Cl)c1ccc2nc[nH]c2c1,-8,-20,-5,-0.2,-2.6,25%,-4.9,-8.1
Cc1ccc(S(=O)(=O)n2nc(OC(=O)c3c(-c4ccccc4Cl)noc3C)cc2N)cc1,-17,0,-3,-0.9,0.2,?,/,-1.7
COc1ccc(NC(=O)c2ccc(Cl)nc2)cc1S(=O)(=O)N1CCOCC1,/,/,7,1.2,/,-3%,-1.3,3.0
COc1ccc(C2OC(=O)CC2C(=O)NC(C)C)cc1 (stereo not given),-12,10,-4,0.1,4.7,?,/,5.6
O=C(c1ccc(F)cc1)c1cn[nH]c1-c1ccccc1O,-19,11,-6,0.8,-0.5,1%,/,2.6
Cc1ccc(S(=O)(=O)N2CCOCC2)cc1NC(=O)COC(=O)CCn1c(C)csc1=O,-2,3,-2,0.2,1.6,/,-0.6,-8.2
CSc1ccccc1C(=O)NCCOc1cccc(C)c1,-10,-6,-6,0.7,-0.9,0%,-2.1,-6.0
CC(C)Nc1nc(NC(C)C)nc(N(C)C(N)=O)n1,-10,12,0,0.4,1.8,1%,/,-2.1
CCc1ccc(/C=C2\SC(=S)N(CCC(=O)NCCCN3CCOCC3)C2=O)cc1,-15,27,2,1.1,3.0,/,8.0,2.6
COc1ccccc1-c1c(C)nn2c(N3CCC(C(N)=O)CC3)cc(C)nc12,-6,2,-11,0.1,6.1,-5%,-5.4,2.2
Cc1cc(/C(N)=N/OC(=O)Nc2ccc(Cl)cc2)no1,-4,-2,0,-0.5,4.6,4%,1.2,3.0
Cc1cc(C)c(C#N)c(SCc2nnc(-c3ccccc3)o2)n1,3,-8,-1,0.2,4.3,3%,-11,1.2
Nc1ccc(N2C(=O)c3ccccc3C2=O)c(Cl)c1,/,/,-6,-0.5,/,/,0.4,-13
CC(C)(Oc1ccc(Cl)cc1)C(=O)N1CCN(c2ccccn2)CC1,27,1,6,0.4,0.3,?,/,3.1
Cc1ccc(NC(=O)NCCCCc2ccccc2)cc1,14,-16,4,0.4,-2.5,-4%,-1.4,6.7
Cc1nnc(NC(=O)c2ccccc2C(=O)O)s1,-18,-14,-6,-1.1,3.2,2%,/,-6.8
CCN(C(=O)COC(=O)c1ccccc1SCC(=O)NC1CCCCCCC1)C1CCS(=O)(=O)C1 (stereo not given),4,-14,2,0.0,-10.0,-3%,/,-1.9
# (list continues)
SMILES,T cruzi repl,Calb FLC,Beta apoptosis,Bfl-1 A1 inh,RanGTP-Imp inh,Vif TR-FRET,AF4-AF9 inh,LANA-H2A inh
COc1ccc(NC(=O)CSc2nc3sc(C)cc3c(=O)n2C)c(OC)c1,-19,14,10,1.2,3.4,/,-1.6,16*
Cc1ccc(CC(NC(=O)c2ccccc2)C(=O)N2CCCC2C(=O)O)cc1 (stereo not given),-7,6,0,1.0,9.5,0%,/,2.4
CCC1(C)Cc2c(sc3[nH]c(=S)n(Cc4ccccc4)c(=O)c23)CO1 (stereo not given),-13,-1,36,-0.7,4.1,-20%,/,-3.7
CCCCn1c(N)c(N(CC(C)C)C(=O)CSc2nnc(C)n2-c2ccc(OC)cc2)c(=O)[nH]c1=O,-8,11,2,0.0,-0.4,3%,-4.5,-0.1
CCOc1ccc(N2C(=O)CC(NCCc3ccncc3)C2=O)cc1 (stereo not given),-10,0,/,0.5,?,-6%,-33,1.5
CCn1c(SCC(=O)NC2CCCC2)nnc1-c1c[nH]c2ccccc12,-17,-1,-4,-0.1,-0.6,-3%,-3.7,-0.9
COC(=O)Cc1[nH]nc2c1C1(C(=O)N(Cc3ccc(Cl)cc3)c3ccccc31)C(C#N)=C(N)O2 (stereo not given),-5,9,-5,0.6,3.0,1%,/,-3.5
CC(=O)c1cccc(S(=O)(=O)NC2CCCCCC2)c1,6,-2,3,-0.2,?,/,/,3.9
CCCCN=Cc1sc2ccc(OCC)cc2c1O,16,25,-11,-0.2,1.9,-5%,/,-2.0
CC(C)c1nc2c(c(=O)n(C)c(=O)n2C)n1C,4,-2,-2,?,3.0,3%,-1.6,1.5
O=C(c1ccc(-c2ccccc2)cc1)N1CCN(C(=O)c2ccco2)CC1,7,-2,-4,-0.2,4.2,2%,/,-4.4
c1ccc(CSCc2cn3ccsc3n2)cc1,2,-1,-10,0.0,-1.7,1%,/,-2.7
COc1ccc(/C=C2\C(=N)N3N=C(CC(=O)N4CCCCC4)SC3=NC2=O)cc1,1,7,-4,0.8,1.6,4%,-6.0,-0.4
CCOC(=O)c1[nH]ncc1CN1CCC(Cc2ccccc2)(C(=O)OCC)CC1,12,4,-6,-0.9,2.3,27%,1.0,-1.6
S=C(Nc1ccccc1)N1CCN(c2ccc(N3CCOCC3)nn2)CC1,12,8,1,0.4,2.1,6%,-1.4,-1.9
